Source: PubChem (several laboratories)
Calb FLC: C. albicans growth inhibition with fluconazole, primary screen, CaCi-2 strain, Alamar Blue fluorescence. AID 1979, 2009. growth inhibition, % (no concentration beside the values). 300,000 compounds, 0.57% hits. C. albicans CaCi-2 (fluconazole-resistant clinical isolate) + fluconazole, 48 h;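 active means most replicates above 75%; inconclusive means exactly half above 75%; inactive means most below 75%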;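 further: all wells also contain fluconazole at 8 µg/ml as a sub-toxic cotreatment; 0% = median of DMSO wells and 100% = median of geldanamycin control wells; wells of about 8 µL received 7.5 nL stock; the first replicate is given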
Beta apoptosis: inhibitors of cytokine-induced beta cell apoptosis, primary screen, luminescence. INS-1E cytokine-induced death, ATP luminescence, 48 h; percent of positive-control rescue, neutral wells zero. protection from apoptosis, % (no concentration beside the values). 300,000 compounds, 0.8% hits;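 active means all replicates at 75% or more, or half of them and the mean; inconclusive means half reach 75% but not the mean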;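 further: 0% = cytokine-treated negative control wells and 100% = positive control rescue; higher means more ATP so stronger rescue from cytokine killing; wells of about 40 µL received 100 nL stock; the first replicate is given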
A1 inh: caspase 3/7 activation in MEF A1-2A-BIM cells, primary screen, A1 inhibitor project, cell-based, luminescence, HTS; Caspase-Glo 3/7 luminescence, 3 h; percent of clofoctol response, vehicle zero; caspase activation, % (no concentration beside the values); 330,000 compounds, 0.066% hits;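 active means over half of replicate activation scores above 10%, or exactly half above 10 with the replicate mean above 10; inconclusive means replicate mean below 10 yet half the replicates above 10; inactive means over half of replicates below 10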;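 further: wells of about 30 µL received 50 nL stock; many hits fall short of the cut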
LANA-H2A inh: blockers of LANA interaction with H2A/H2B – biochemical, FP readout, HTS, primary screen | inhibition, % (concentration not given with the values) | 320,000 compounds, 0.6% hits | cell-free LANA-H2A/H2B peptide, fluorescence polarization | Protein LANA1 (Human herpesvirus 8 type P (isolate GK18)), Q9QR71; in the data active means inhibition mostly above about 10%, no sharp cut-off; inactive means mostly below about 6.7%;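 further: stock transfer was 7.5 nL into about 10 µL; 0% = median of vehicle wells and 100% = median of positive control wells; one replicate is shown; the record names a cut of 25% in any replicate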
Target sequence (Q9QR71 whole entry, looked up): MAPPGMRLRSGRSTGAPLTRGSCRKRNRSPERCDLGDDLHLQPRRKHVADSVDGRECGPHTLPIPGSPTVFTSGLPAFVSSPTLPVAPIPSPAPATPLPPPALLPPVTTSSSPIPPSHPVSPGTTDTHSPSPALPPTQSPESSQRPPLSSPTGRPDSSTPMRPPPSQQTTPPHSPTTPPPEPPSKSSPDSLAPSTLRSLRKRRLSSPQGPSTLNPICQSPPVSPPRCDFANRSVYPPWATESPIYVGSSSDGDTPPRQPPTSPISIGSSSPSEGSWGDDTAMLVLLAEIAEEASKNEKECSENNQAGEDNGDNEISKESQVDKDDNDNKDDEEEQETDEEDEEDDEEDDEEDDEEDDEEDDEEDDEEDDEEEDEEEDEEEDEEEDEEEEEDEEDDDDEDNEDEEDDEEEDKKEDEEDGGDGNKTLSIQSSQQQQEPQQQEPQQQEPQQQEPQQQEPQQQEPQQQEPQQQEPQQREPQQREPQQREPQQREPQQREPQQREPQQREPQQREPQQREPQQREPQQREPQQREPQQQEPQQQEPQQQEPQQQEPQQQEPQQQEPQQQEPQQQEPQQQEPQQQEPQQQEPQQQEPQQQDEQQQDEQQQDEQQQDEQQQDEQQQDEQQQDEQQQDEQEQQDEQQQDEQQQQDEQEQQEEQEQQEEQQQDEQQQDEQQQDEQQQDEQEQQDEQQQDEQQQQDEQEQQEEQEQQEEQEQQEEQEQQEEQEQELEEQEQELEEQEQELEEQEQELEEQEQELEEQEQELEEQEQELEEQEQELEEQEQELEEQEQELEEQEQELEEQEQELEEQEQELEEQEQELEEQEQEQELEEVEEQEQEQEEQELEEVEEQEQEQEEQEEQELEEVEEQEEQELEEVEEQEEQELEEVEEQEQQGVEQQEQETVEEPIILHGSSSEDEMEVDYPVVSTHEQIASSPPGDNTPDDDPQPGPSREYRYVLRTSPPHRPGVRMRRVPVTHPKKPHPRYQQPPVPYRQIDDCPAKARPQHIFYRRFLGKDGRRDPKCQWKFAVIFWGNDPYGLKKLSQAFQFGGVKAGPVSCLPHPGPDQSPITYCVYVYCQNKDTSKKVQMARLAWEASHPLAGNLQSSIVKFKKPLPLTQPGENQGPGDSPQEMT
T cruzi inh: inhibitors of intracellular T. cruzi growth, primary screen, luminescence, NIH3T3 host cells; T. cruzi beta-gal in NIH3T3, 90 h; inhibition, % (no concentration beside the values); 300,000 compounds, 1.4% hits;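 active means mean inhibition across valid replicates above about 55%, limit read from the data; inconclusive means mean below that limit but half or more replicates reach it; inactive means mean below it, under half of replicates reach it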;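 further: signal also drops with host cell toxicity which is not excluded here; 0% = plate median of DMSO wells and 100% = zero luminescence signal; higher percent means less beta-gal luminescence so fewer parasites; stock transfer was 50 nL into about 50 µL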
UCH37 DUB inh: inhibitors of human UCH37 deubiquitinase, primary screen, biochemical, Ub-AMC cleavage, fluorescence; Ubiquitin carboxyl-terminal hydrolase isozyme L5 (Homo sapiens), Q9Y5K5; purified proteasome/UCH37; inhibition, % (concentration not given with the values); 330,000 compounds, 0.33% hits;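 active means mean of two replicates above 20%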;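 further: 0% = compound-free wells with enzyme and 100% = wells lacking proteasome; stock transfer was 100 nL into about 20 µL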
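Material: human UCH37 enzyme supplied as purified proteasome complex / Amount: 0.15 nM proteasome as dispensed / Buffer or medium: pH 7.4 Tris-HCl (50 mM) with ovalbumin, ATP-MgCl2, DTT / Times: preincubation 30 min, reaction 25 min, room temperature / Technique: AMC fluorescence from Ub-AMC cleavage, excitation 355 nm, emission 460 nm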
Beta2AR agonist: beta2AR agonists driving receptor internalization, primary screen, cell-based, FAP fluorogen, flow cytometry; AID 504454, 2011; response, % (concentration not given with the values); Am2.2-beta2AR cells; reference of the scale not given here; 340,000 compounds, 0.43% hits;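 active means response above a set limit, near 3 SD of response in nonfluorescent compounds, cut at about 42% in these data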;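 further: stock transfer was 100 nL into about 11 µL; a reference agonist was the positive control; negative values mostly stem from fluorescent compounds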
RanGTP-Impb inh: inhibitors of RanGTP-importin-beta interaction, primary screen, biochemical, FRET, CFP-Ran, YFP-importin-beta, homogeneous; Ran GTPase (GTP-bound) - importin-beta complex; inhibition, % (concentration not given with the values); cell-free CFP-Ran/YFP-importin-beta FRET ratio; 300,000 compounds, 1.1% hits;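 active means most replicates above 15%; inconclusive means exactly half above 15%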;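 further: 0% = DMSO wells and 100% = Ran loaded with GDP instead of GTP; wells of about 40 µL received 100 nL stock; the first replicate is given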
* hit, by the source's call; ? = inconclusive; / = not tested or not shown. Random draw from the library; 4.3% or so of the library scored in one or more.

SMILES | Calb FLC | Beta apoptosis | A1 inh | LANA-H2A inh | T cruzi inh | UCH37 DUB inh | Beta2AR agonist | RanGTP-Impb inh
COc1ccc(-c2cc(C(F)F)n3ncc(C(=O)N4CCc5ccccc54)c3n2)cc1 | 4.3 | 9.0 | -0.3 | 1.6 | -7.6 | 1.4 | 0.1 | 1.8
Cc1ccc(NC(=O)CNC(=O)c2ccc(Oc3ccccc3)cc2)nc1 | 88.8* | / | 0.0 | -2.9 | -1.6 | -1.8 | -1.9 | -0.3
Cc1cc(NC(=O)CSc2nnc(-c3ccncc3)n2-c2ccccc2)no1 | -5.4 | -2.6 | 0.3 | -1.3 | -3.3 | -4.4 | -2.0 | 4.8
COc1cc(CNc2ccc3[nH]c(=O)[nH]c3c2)ccc1OCc1ccc(Cl)cc1 | 18.0 | -9.6 | -0.7 | 1.1 | -26.0 | -2.7 | 5.1 | 7.0
Cc1ccccc1NS(=O)(=O)c1cc(C(=O)NCCSC2CCCCC2)ccc1C | -14.7 | / | -1.2 | 3.3 | 28.9 | 1.5 | 3.3 | -3.3
O=C(CN1CCN(c2ccc(F)cc2)CC1)c1ccc(O)cc1O | -1.9 | -1.0 | -0.3 | -1.2 | -6.2 | 2.9 | 4.7 | 1.3
COc1ccc(C(=O)n2nc(C)cc2Nc2ccccc2)cc1 | -1.5 | 4.2 | -0.2 | 1.3 | 2.8 | 0.5 | -8.1 | 2.8
O=C(CCN1C(=O)/C(=C\c2ccccc2)SC1=S)Nc1ccc(C(=O)O)cc1 | -5.0 | -3.2 | -0.3 | 0.2 | -7.0 | 7.4 | 2.2 | 7.1
COc1cc(/C=N/N2CCN(C3c4ccccc4-c4ccccc43)CC2)ccc1O | 5.7 | -5.3 | 0.2 | 25.5* | 1.9 | / | 0.7 | 3.6
COc1ccccc1CCN1CCCC(CN(C)CC(C)(C)CO)C1 (stereo not given) | 2.2 | / | -0.6 | -5.8 | 34.6 | 1.6 | 6.6 | -0.9
COCCN1CCN(Cc2cn(C)nc2-c2ccc(Oc3ccccc3)cc2)CC1 | -5.2 | -0.4 | -0.3 | -4.7 | 32.4 | 1.0 | -2.4 | -0.9
CCCCCCCOc1ccc(C2(C)NC(=O)NC2=O)cc1 (stereo not given) | 2.2 | 1.6 | 1.0 | -31.6 | 6.9 | -0.4 | -5.1 | 0.5
O=c1[nH]c2c(Br)cnc([N+](=O)[O-])c2[nH]1 | -9.6 | -2.9 | -0.1 | 1.1 | 8.8 | 8.1 | -11.1 | 2.4
CCOc1cc(C(=O)NCCC(=O)N2CCC3(CC2)NCCc2[nH]cnc23)cc(OCC)c1OCC | -1.7 | 0.9 | 0.9 | 3.9 | 7.2 | -1.3 | -57.8 | -2.9
CCCOc1ccccc1C(=O)N(Cc1cccs1)C1CCS(=O)(=O)C1 (stereo not given) | -11.8 | -0.9 | 0.7 | -3.3 | 6.6 | 1.8 | -5.5 | 4.4
CCCCNc1nc2c(c(=O)n(C)c(=O)n2C)n1Cc1cccc(OC)c1 | 6.9 | 38.1 | -0.1 | 1.8 | 37.2 | 2.9 | -1.8 | 0.2
CC(=O)c1cccc(NC(=O)c2ccc3c(c2)C(=O)N(Cc2cccnc2)C3=O)c1 | -2.4 | / | -1.3 | -0.1 | 5.0 | 0.2 | -1.2 | -3.1
CCN(C(=O)COC(=O)CCNS(=O)(=O)c1ccccc1F)c1c(N)n(Cc2ccccc2)c(=O)[nH]c1=O | / | 1.0 | 0.2 | -2.6 | / | 0.0 | -0.1 | /
CCC(NC(=O)CCl)c1ccc(C)cc1 (stereo not given) | 5.2 | -4.2 | 0.0 | -2.2 | 18.8 | -0.9 | 15.0 | -0.8
Cc1nc(SC2CC(=O)N(c3ccc([N+](=O)[O-])cc3)C2=O)nc2c1CCCC2 (stereo not given) | 2.9 | -6.5 | -0.9 | -0.9 | 5.2 | 5.1 | -3.3 | -0.3
CC(=O)C1=C(O)C(=O)N(Cc2ccco2)C1c1cccc(F)c1 (stereo not given) | 0.9 | -1.7 | 0.0 | -0.3 | -2.1 | 4.8 | -3.6 | -2.6
CC(C)(C)[C@H]1COC(=O)[C@H](NC(=O)OCC2c3ccccc3-c3ccccc32)C/C=C\C[C@@H](CC(=O)N[C@H](CO)Cc2ccccc2)C(=O)N1 | / | 17.2 | 0.4 | 10.9 | / | 1.2 | -4.3 | /
O=c1c(Cc2ccc(F)cc2)c(O)ccn1C1CCCCC1 | -6.5 | -5.4 | 0.5 | -0.2 | -13.9 | -3.0 | -1.1 | 3.7
O=C(CCN1C(=O)c2ccccc2C1=O)Nc1ccccc1C(=O)N1CCOCC1 | -2.7 | -7.9 | 0.2 | 2.4 | -11.9 | 2.1 | 2.4 | -4.0
COC(=O)Cc1ccc(NC(=S)Nc2cccc(C)n2)cc1 | -14.7 | -6.5 | -1.4 | 0.2 | -4.6 | 2.9 | 5.5 | 3.4
CN(C[C@@H](Cc1cccc2ccccc12)N(C[C@H](Cc1ccccc1)N(CCc1ccccc1)N=O)N=O)N=O | -5.9 | -1.4 | -0.7 | 1.0 | 6.2 | 2.3 | 13.0 | -3.6
S=C(NCCSCc1c(Cl)cccc1Cl)Nc1ccccc1 | 95.1* | 4.5 | -0.1 | 2.8 | 56.1* | 2.3 | -1.3 | /
COC(=O)CC1=Nc2ccccc2NC(=O)C1 | -0.5 | -3.1 | 1.1 | 1.5 | -1.8 | 1.3 | -14.1 | 4.9
Cc1cccc(C)c1NC(=O)CSc1nnc(NC(=O)c2ccccc2C(=O)O)s1 | 2.5 | -5.4 | -0.2 | 2.8 | -4.7 | 2.5 | 2.6 | -1.6
O=C(O)C1CC(=O)N(Cc2ccc(F)cc2)C1 (stereo not given) | / | -2.0 | 1.5 | 1.2 | / | 1.6 | 1.8 | /
CCCSc1ccc([C@H]2N[C@@](CC(C)C)(C(=O)OC)[C@H]3C(=O)N(CC)C(=O)[C@@H]23)cc1 | / | -1.0 | 0.1 | 11.6 | / | 0.3 | 4.5 | /
CCN(Cc1cc2ccccc2[nH]c1=O)C(=O)C(C)C | 8.0 | -2.0 | -0.2 | -0.3 | -20.5 | -0.1 | -8.2 | ?
CCOC(=O)c1cc(C(O)(C(F)(F)F)C(F)(F)F)c(/N=C/N(C)C)o1 | -18.7 | -7.3 | 0.3 | 4.7 | 21.7 | / | 19.5 | 2.7
NC(=O)C1CN(C(=O)c2cccc(S(=O)(=O)N3CCc4ccccc43)c2)c2ccccc2O1 (stereo not given) | / | -7.7 | 0.7 | / | / | 2.2 | 1.9 | /
O=C(COC(=O)c1ccccc1Cl)NCCC1=CCCCC1 | -18.3 | -6.8 | -0.7 | -6.9 | 15.9 | 11.7 | -2.1 | 2.7
CCOC(=O)c1ccc(S(=O)(=O)NCCN(CC)CC)cc1 | -3.8 | 3.6 | -0.2 | 3.6 | -4.3 | -1.0 | 1.1 | -0.3
Cc1c(N=C2SCC(=O)N2c2c(C)n(C)n(-c3ccccc3)c2=O)c(=O)n(-c2ccccc2)n1C | -4.7 | -3.2 | 0.8 | 2.8 | 5.8 | 1.0 | 5.0 | -1.6
CCOC(=O)C1CCN(CC(=O)Nc2c(C(=O)OC)[nH]c3cccc(Cl)c23)CC1 | 5.7 | -5.0 | 1.0 | -1.8 | -5.6 | -1.6 | 2.3 | ?
Cn1ccnc1COc1ccc(C=O)cc1 | 0.8 | -4.4 | -0.4 | -0.4 | 0.5 | 4.2 | -7.7 | -1.8
Cc1ccn2c(NCc3ccccc3)c(-c3cccc(SC4CCCCC4)c3)nc2c1 | / | -1.0 | 1.4 | 3.2 | / | / | 3.4 | /
Cc1[nH]c2ccccc2c1C(=O)CN1CCCCC1CCO (stereo not given) | -0.5 | -1.7 | 0.1 | 5.7 | 1.2 | / | -1.8 | 3.0
COc1c(C)cc(S(=O)(=O)N2CCCC2)c(C)c1C | -22.4 | -7.5 | 0.3 | -2.8 | 5.5 | 0.2 | -6.2 | 6.0
CC1=NN(C(=O)c2ccc(C)o2)C(O)(c2ccccc2)C1 (stereo not given) | / | -6.8 | -0.2 | -476.0 | / | 2.9 | -1.8 | /
O=C(COC(=O)CCS(=O)(=O)c1ccc(Cl)cc1)Nc1ncc(Cl)cc1Cl | 1.6 | -6.1 | 0.4 | -8.1 | -27.1 | -3.5 | 1.3 | -2.1
Cn1c(=O)c2c(nc(CN3CCN(c4ccccc4F)CC3)n2CCN2CCOCC2)n(C)c1=O | -0.9 | -7.4 | 0.0 | -5.5 | -5.2 | -1.3 | 0.6 | 3.5
COc1ccc(/C(N)=N/OC(=O)CC2CCCCC2)cc1OC | 8.9 | -3.8 | 0.2 | 11.0 | -4.9 | 2.1 | 9.0 | 0.1
Cc1cccc(-c2noc(-c3ccccc3C(=O)NCC3CCCO3)n2)c1 (stereo not given) | 6.4 | -4.6 | -0.7 | 0.4 | -10.1 | 0.7 | 8.9 | -0.2
CCN(CC)CCCN1C(=O)C(=O)/C(=C(/O)c2cc(C)ccc2C)C1c1cccnc1 (stereo not given) | 3.0 | 4.5 | -0.7 | -0.7 | -20.0 | 3.3 | -2.1 | -1.0
Cc1csc(SCC(=O)NCc2cccc(Cl)c2)n1 | 10.7 | 1.4 | -0.3 | -2.0 | -5.6 | 2.9 | -8.6 | -3.2
CC(C)C[C@H](NC(=O)c1[nH]cnc1C(=O)N[C@@H](C)C(=O)OC(C)(C)C)C(=O)OC(C)(C)C | 19.9 | 2.7 | 2.2 | -0.2 | -0.9 | 1.7 | -2.5 | -4.6
(next part)
SMILES | Calb FLC | Beta apoptosis | A1 inh | LANA-H2A inh | T cruzi inh | UCH37 DUB inh | Beta2AR agonist | RanGTP-Impb inh
CSc1ccc(Cl)c(C(=O)OCC(=O)N2CCOCC2)c1 | -3.8 | -8.7 | -3.1 | 1.6 | -5.5 | -2.0 | 12.6 | 1.8
COc1ccc2c(C)c(CC(=O)N3CCN(C(=O)C4COc5ccccc5O4)CC3)c(=O)oc2c1 (stereo not given) | 2.9 | -5.7 | 1.1 | -2.7 | -11.7 | -280.8 | 4.8 | 0.2
O=C(CN1C(=O)NC2(CCCC2)C1=O)Nc1ccc(Cl)c(C(F)(F)F)c1 | -0.9 | -7.0 | 1.2 | 14.3 | -0.1 | 4.1 | 1.5 | -3.2
COc1ccc(C(C)NC(=O)c2ccccc2Br)cc1OC (stereo not given) | 1.7 | -0.6 | 0.3 | 5.0 | -9.1 | 2.1 | -7.4 | ?
c1ccc(CN2CCN(Cc3cn4cccnc4n3)CC2)cc1 | -12.1 | 4.4 | 0.2 | 4.7 | -13.4 | -29.6 | 6.8 | 4.0
Cc1cccc(/C=C/c2onc(C)c2S(=O)(=O)N2CCC(C(=O)NC(C)C)CC2)c1 | -5.7 | 3.3 | 0.0 | 0.1 | 4.3 | 4.5 | -0.5 | -4.5
